Assay outcomes: PubChem BioAssay, Center for Chemical Genomics, University of Michigan
HIV TAR-Tat: TAR RNA-Tat peptide displacers, HIV-1, primary screen, biochemical, FRET, FAM/TAMRA-labeled Tat; HIV-1 TAR RNA, Tat peptide displacement FRET; hits give high values; z-score (test concentration not listed); hit rate 0.6% among 100,000;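 further: score is relative to mean and SD of negative controls; some compounds called inactive have numbers as strong as hits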
CDC25B-CDK2 inh: primary biochemical HTRF screen for blockers of M-phase inducer phosphatase 2 binding to CDK2/cyclin A; P30305+P24941; HTRF CDC25B-CDK2/CyclinA binding, anti-His/anti-Flag; hits give high values; z-score (concentration not given with the values); hit rate 0.72% among 94,000;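 further: score is relative to mean and SD of negative controls; strong numbers were not always called active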
An asterisk follows results filed as active; . = no result given.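 How the source made its calls: active means z-score from 3 up in half or more of its runs; inactive means the rest.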

SMILES	HIV TAR-Tat	CDC25B-CDK2 inh
O=C(CSC1=NC(c2ccccc2)=NCN1c1ccccc1)N1CCN(c2ccccc2)CC1	-0.81	-0.99
CCOC(=O)/C(C#N)=C/Nc1ccc2c(c1)OCO2	.	-2.97
Cc1cc(C)c(S(=O)(=O)NCc2ccc3c(c2)OCO3)cc1Br	0.19	-1.34
CN1c2ccccc2C(=O)/C(=C\Nc2ccccn2)S1(=O)=O	.	-3.06
CC(=O)N1CC(C)Sc2ccc(S(=O)(=O)NC3CCCC3)cc21 (configuration not stated)	0.02	.
Cc1cc(NS(=O)(=O)c2cc3c(cc2C)N(C)CCO3)ccc1Br	0.36	.
COc1ccc(OC)c(-c2noc(CSc3nnc(C)n3-c3cccc(C)c3)n2)c1	-1.93	-2.35
CCC(O)c1nc2ccccc2n1C (configuration not stated)	0.48	-1.19
COc1ccc(OC)c(NS(=O)(=O)c2cc(-c3cc(C)no3)ccc2C)c1	0.54	.
COc1ccccc1NS(=O)(=O)c1cn(C)c(C)n1	2.67	.
Cn1ncc([N+](=O)[O-])c1C(=O)Nc1cccc(Cl)c1	1.92	-1.27
CCCn1c(NCc2ccncc2)nc2ccccc21	-0.07	2.64
CC(=O)N1CCN(c2cc(N3CCCCC3)nc(C)n2)CC1	-0.09	-0.58
Cc1ccc(NC(=O)Nc2c[nH]c(=O)[nH]c2=O)c(C)c1	1.81	.
O=C(O)c1nccnc1C(=O)NCc1ccco1	2.53	-1.52
CCOC(=O)Oc1c(Cl)cc2oc(=O)sc2c1Br	.	-1.48
Cc1nn(C)c(NCCSCc2c(Cl)cccc2Cl)c1[N+](=O)[O-]	.	-1.14
CCC(Cn1nnc2ccccc2c1=O)NC(=O)Nc1ccc(F)cc1F (configuration not stated)	0.77	-1.67
CCC(O)c1nc2ccccc2n1CC(=O)N(C(C)C)C(C)C (configuration not stated)	-1	-0.47
CC(C)C(=O)NC(c1ccco1)c1ccc2cccnc2c1O (configuration not stated)	0.57	-0.84
CCn1nc(Br)nc1Sc1ccccc1N	1.57	.
COc1ccc(C2=Nc3ccc(Br)cc3NC(c3ccncc3)=N2)cc1	-1.08	-0.96
COc1nc(OC)nc(N2CCN(c3cc(C)ccc3C)CC2)n1	0.68	0.14
COc1nc(C)nc(/N=C\NO)n1	.	-0.11
O=C1C(=O)N(c2nc3ccccc3s2)C(c2ccc3c(c2)OCO3)/C1=C(\O)c1ccccc1 (configuration not stated)	1.45	2.48
Next compounds follow:
SMILES	HIV TAR-Tat	CDC25B-CDK2 inh
COc1ccc2c(c1)-c1c(sn(-c3cc(C)ccc3O)c1=S)C(C)(C)N2	0.93	-0.84
CCSC1=N/C(=C\c2c(OC)cc(OC)cc2OC)C(=O)S1	-1.41	4.36
CCCCOc1ccc(C2CC(=O)Nc3c2c(C)nn3-c2ccc3nnc(C)n3n2)cc1 (configuration not stated)	-0.36	.
CC1(C)CC(=O)c2sc(NC(=O)c3ccccc3Cl)nc2C1	.	-1.08
O=C(O)C1CCC1C(=O)N1CCN(c2ccc([N+](=O)[O-])cn2)CC1 (configuration not stated)	.	-2.27
CCOC(=O)Cn1c(=O)n(C2CCCC2)c(=O)c2cnn(-c3ccccc3)c21	0.17	0.13
O=C(O)CCC(=O)N1CCSc2ccccc21	2.15	0.51
CCCCCc1c(C)nc(Nc2nc(C)c3cccc(C)c3n2)[nH]c1=O	0.62	2.08
COC(=O)c1cc(=O)c2cc(NC(=O)c3ccc(OC(F)(F)F)cc3)ccc2[nH]1	.	-1.33
COC(=O)c1cc2occc2n1Cc1ccc(Br)cc1F	0.65	1.34
O=C(O)CCC(=O)c1ccc(Cl)cc1	0.95	.
O=S(=O)(c1ccc(-c2cc(C(F)(F)F)on2)s1)N1CCN(C2CCCCC2)CC1	0.75	.
COc1ccc(N2C(=O)C3N=NN(CC(=O)Nc4ccc(F)cc4)C3C2=O)cc1 (configuration not stated)	-1.24	0.87
CN(CCNC(=O)Cn1c(=O)c(=O)n(C)c2ccccc21)C1CCCCC1	1.45	.
CC(C)C(=O)N(Cc1ccco1)S(=O)(=O)c1ccc2c(c1)oc(=O)n2C	-0.53	-2.74
Cc1c(C(=O)Nc2cc(F)ccc2F)oc2ccc3c(c12)C(=O)CC(C)(C)O3	2.08	.
Cc1ccc(S(=O)(=O)N2CCC(c3ccncc3)CC2)cc1	0.58	.
Cn1c(Sc2nc3ccc(Cl)cc3s2)nnc1-c1cccs1	.	-0.17
O=C(c1ccccc1)C(C(=O)c1ccccc1)C(=O)c1ccccc1	-0.14	-2.12
CC(=O)N/C(=C/c1ccc2c(c1)OCO2)C(=O)O	.	-2.87
O=C(Nc1nc2ccc([N+](=O)[O-])cc2s1)c1cc(-c2ccccc2)nc2ccccc12	.	-3.04
CCc1cc2c(cc3c(=O)n(CC(=O)N4CCN(C)CC4)nc(CC)n32)s1	.	-1.43
Cc1ccc2nnc(-c3ccccc3)c(C(=O)O)c2c1	0.76	-1.91
Cn1cc(/C(N)=N/OC(=O)c2ccc(Cl)cc2)c(=O)n(Cc2ccccc2)c1=O	.	-2.25
COc1ccc(NC(=O)NCc2c(-n3cccc3)sc3c2CCN(C)C3)cc1	-7.21	.

Some of the entries so far, as comma-separated lines:
molecule,HIV TAR-Tat,CDC25B-CDK2 inh
Cn1cc(/C(N)=N/OC(=O)c2ccc(Cl)cc2)c(=O)n(Cc2ccccc2)c1=O,.,-2.25
COc1ccc(NC(=O)NCc2c(-n3cccc3)sc3c2CCN(C)C3)cc1,-7.21,.

5 of the compounds above, with two lines to a compound.
Results follow in this order: HIV TAR-Tat | CDC25B-CDK2 inh
CCCCOc1ccc(C2CC(=O)Nc3c2c(C)nn3-c2ccc3nnc(C)n3n2)cc1 (configuration not stated)
    -0.36 | .
CC1(C)CC(=O)c2sc(NC(=O)c3ccccc3Cl)nc2C1
    . | -1.08
O=C(O)C1CCC1C(=O)N1CCN(c2ccc([N+](=O)[O-])cn2)CC1 (configuration not stated)
    . | -2.27
CCOC(=O)Cn1c(=O)n(C2CCCC2)c(=O)c2cnn(-c3ccccc3)c21
    0.17 | 0.13
O=C(O)CCC(=O)N1CCSc2ccccc21
    2.15 | 0.51

Next part
SMILES	HIV TAR-Tat	CDC25B-CDK2 inh
Cc1nnc(N2C(=O)c3oc4ccccc4c(=O)c3C2c2ccc(F)cc2)s1 (configuration not stated)	.	-1.37
CCOC(=O)N1CCN(S(=O)(=O)c2ccc3c(c2)CC(C)N3C(C)=O)CC1 (configuration not stated)	1.23	.
O=C(c1ccc(N2CCc3ccccc32)s1)N1CCN(Cc2ccc3c(c2)OCO3)CC1	0.81	.
Cc1onc(C(=O)NCc2ccccn2)c1[N+](=O)[O-]	0.17	-0.01
CCc1nnc(SC(CC)C(=O)NCCOC)c2cc3sccc3n12 (configuration not stated)	5.48	.
Cc1c(CO)[nH]c2ccc(Cl)cc12	-0.41	-1.3
NC(=O)NCCCC(N)C(=O)O (configuration not stated)	0.77	.
Cc1cccc(OCc2ccc(-c3nc(C#N)c(N(C)C)o3)o2)c1	-1.03	-0.83
Cc1c(CNC(=S)Nc2ccc(F)cc2)sc2ccccc12	.	-0.42
CCCCOc1cccc(C2c3c(-c4ccccc4O)n[nH]c3C(=O)N2CC2CCCO2)c1 (configuration not stated)	-1.28	0.12
COC(=O)c1sccc1NC(=O)c1nn(C)c2c1COc1ccccc1-2	1.12	-0.78
CCC1Sc2ccc(S(=O)(=O)CCC(=O)N3CCCCC3)cc2NC1=O (configuration not stated)	-0.96	.
COc1ccc(CCN=C2NS(=O)(=O)C(c3ccc(F)cc3)=C2C)cc1OC	2.12	.
COc1ccc(N2CCN(c3csc4ccc(F)cc4c3=O)CC2)cc1	-0.98	.
COc1ccc(-c2nnc(SCc3ccccc3C)o2)cc1	-1.81	-0.84
O=S(=O)(c1ccc2nc(-c3ccccc3)[nH]c2c1)N1CCN(c2ccc(F)cc2)CC1	.	0.29
Cc1ccc(C2c3c(oc4ccccc4c3=O)C(=O)N2c2nnc(C)s2)cc1 (configuration not stated)	0.51	0.46
Clc1ccc(-n2cc(-c3ccccc3)c3c(NCC4CCCO4)ncnc32)cc1 (configuration not stated)	.	-2.95
COc1ccc2c(c1)CC(NC(=O)Nc1ccc(Cl)cc1)CO2 (configuration not stated)	0.27	.
c1ccc(-c2nnc3sc(-c4csc5c4CCCC5)nn23)cc1	1.58	-0.82
Cc1cccc2nc(-c3ccccn3)c(Nc3ccc(F)cc3)n12	.	1.11
COC(=O)c1sccc1NC(=O)CN1Cc2ccccc2C1=O	-0.05	.
CC(C)(C)C1CCc2c(sc(NC(=O)CCC(=O)O)c2C(=O)Nc2ccccc2Cl)C1 (configuration not stated)	-0.47	-1.16
O=C(O)CCCc1nc2cccnc2n1-c1ccccc1	-0.61	.
Cc1cc(C)n(CCc2nc3c4ccccc4n(Cc4ccc(F)cc4)c(=O)n3n2)n1	.	-1.66
Continuation.
SMILES	HIV TAR-Tat	CDC25B-CDK2 inh
FC(F)(F)c1nnc2sc(CCc3ccccc3)nn12	0.72	-0.98
COc1ccc(OC)c(NCc2c(CO)cnc(C)c2O)c1	-0.98	.
CCN1CCN(c2nc(N)c([N+](=O)[O-])c(Nc3ccc(Cl)cc3)n2)CC1	-0.29	.
CCCN(CCC)CCNC(=O)c1[nH]c(C)c(C(C)=O)c1C	.	-1.18
O=C(O)/C=C/C(=O)N1CCCN(c2ncccc2C(F)(F)F)CC1	.	0.03
Oc1ccc(Cl)cc1-c1csnn1	0.15	-1.29
Cc1nc2sc(C(c3cccc(F)c3)N3CCN(Cc4ccccc4)CC3)c(O)n2n1 (configuration not stated)	.	-1.81
CN1CCN(c2ncnc3onc(-c4ccc(Cl)cc4)c23)CC1	-0.91	-1.28
O=C(Nc1cccc(Cl)c1)c1nn2c(C(F)(F)F)cc(-c3ccco3)nc2c1Cl	-0.3	-0.97
CCC(C)N1C(=O)C2C(C(=O)Nc3cccc(OC)c3)C3C=CC2(O3)C1C(=O)NC1CCCCC1C (configuration not stated)	2.81	-0.43
CC(C)NC(=O)CN1C(=O)c2cccc3cccc1c23	0.56	-1.18
O=C1CC(C(=O)Nc2cccc(F)c2)n2ncnc2N1 (configuration not stated)	0.54	-1.15
CC1(C)OC(=O)C(=Cc2ccc(Cl)cc2Cl)C(=O)O1	.	9.23*
O=C(COCc1cc(-c2ccc3c(c2)OCO3)on1)NC1CCCC1	0.95	.
NCCCC[C@@H](N[C@H](CCc1ccccc1)C(=O)O)C(=O)N1CCC[C@H]1C(=O)O	6.75	.
C#CCn1c(-c2ccc(N(C)C)cc2)nc2ccccc21	0.99	-0.78
O=C(N/N=C\c1ccc(-c2ccc(Cl)c(Cl)c2)o1)C1COc2cc3ccccc3cc2O1 (configuration not stated)	.	-1.51
OC(COc1ccc(C(F)(F)F)cn1)CSc1ccc(C(F)(F)F)cn1 (configuration not stated)	.	-0.31
CN1C(=O)c2ccccc2Sc2cc(NC(=O)CCC3CCCC3)ccc21	1.78	.
COc1ccc(N2CCN(C(=O)CCc3nnc4ccc(N5CCOCC5)nn34)CC2)cc1	-0.52	.
COc1ccc(OC)c(Nc2ncnc3c2nc2n3CCCC2)c1	1.31	.
O=C(Cn1cnc2c(oc3ccccc32)c1=O)N1CCCC1	-0.85	0.7
COc1ccccc1C(=O)n1nc(C)c(Sc2nnc(C(F)(F)F)n2C)c1C	.	-0.79
CCCN(CCC)S(=O)(=O)c1ccc(N2CCCCS2(=O)=O)cc1	1.24	.
NC(=O)c1c(NC(=O)CN2C(=O)c3ccccc3S2(=O)=O)sc2c1CCCC2	.	-2.93
(more compounds)
SMILES	HIV TAR-Tat	CDC25B-CDK2 inh
CC(C)c1ccc(-c2cc3c(Cl)nccn3n2)cc1	3.13	-1.47
NC(=O)CSc1nc2c(c(=O)n1CCc1ccccc1)SCC2	1.09	.
COc1cc(C2C(C#N)=C(N)Oc3n[nH]c(-c4ccc5c(c4)OCO5)c32)cc(OC)c1OC (configuration not stated)	.	-3.36
Cc1ccc(C2CC(c3ccco3)=Nc3ccccc3S2)cc1 (configuration not stated)	.	0.1
Cc1ccc(OCc2n[nH]c(=S)n2C)cc1	.	-0.33
O=C(CN1CCCC1)Nc1ccc(I)cc1	.	-0.95
CC1(C)Cc2ccccc2-c2nnc(-c3cccs3)n21	-0.34	-0.57
Brc1ccc(Cn2ncc3ccccc32)cc1	-0.33	-0.8
Cn1c(=O)c2sccc2n2c(CCCC(=O)N3CCN(C(=O)c4ccco4)CC3)nnc12	1.31	.
O=C(NCCCN1CCN(c2ccccc2)CC1)c1cc2c(s1)-c1ccccc1SC2	0.31	2.18
CCCCSc1nc2n(n1)C(c1ccc(F)cc1)C1=C(CC(C)(C)CC1=O)N2 (configuration not stated)	-0.5	-0.2
Cn1c(=O)c(=O)n(C)c2cc(S(=O)(=O)NCc3ccc4c(c3)OCO4)ccc21	.	-2.07
COc1cc(C2NC(=O)NC(O)(C(F)(F)F)C2C(=O)c2cccs2)ccc1O (configuration not stated)	.	-3.92
Cc1ccc2nc(NCC3CCCO3)c3nnnn3c2c1 (configuration not stated)	-0.66	-0.85
COc1ccc(OC)c(NS(=O)(=O)c2c(C)nc3sc(C)cn3c2=O)c1	-0.08	.
O=C(c1ccc(F)cc1)N1CCN(c2ccc3nnc(-c4ccccc4)n3n2)CC1	.	-1.92
C=CCN1C(=O)/C(=C2\SC(=S)N(Cc3ccco3)C2=O)c2ccccc21	.	0.24
O=C1c2ccccc2C(Nc2cccnc2)N1Cc1ccc2c(c1)OCO2 (configuration not stated)	.	-0.34
COc1ccc(-c2noc(NCc3ccc(C)o3)n2)cc1	-1.45	.
Nc1nc(-c2ccccc2)nn1C(=O)c1ccccc1Cl	-1.01	0.48
C=CCNCc1cccc(Oc2nnnn2-c2ccccc2)c1	1.09	.

Single records (already shown). Screens in order: HIV TAR-Tat, CDC25B-CDK2 inh
Brc1ccc(Cn2ncc3ccccc32)cc1 is listed as -0.33, -0.8
CC(C)c1ccc(-c2cc3c(Cl)nccn3n2)cc1 is listed as 3.13, -1.47
O=C(NCCCN1CCN(c2ccccc2)CC1)c1cc2c(s1)-c1ccccc1SC2 is listed as 0.31, 2.18

No enrichment for hits, and some 0.87% of all compounds hit somewhere here.
